# Compound activity (PubChem BioAssay)
# motility: Vibrio cholerae motility inhibitors, OD read-out (AID 588778) | Vibrio cholerae motility, OD read-out; higher % means a stronger effect; test concentration not given here; primary cut-off and reference of the scale not given here; strong numbers were not always called active | one-dose inhibition, %; IC50 in µg/mL for titrated hits | 10,000 tested, under 10 active; in the data active = confirmed in a dose series
# motility viability: also measured in motility; calls as there; inhibition, %; measured here: bacterial viability at 10 ug/mL;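 higher means fewer living bacteria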
# * marks the source's active call; other numbers are inactive results.
Structure	motility viability	motility
CNC(=O)OC(C)CNS(=O)(=O)c1ccc(C)cc1 (stereo unspecified)	9	6%
Cc1nn(-c2ccccc2)c(C)c1NC(=S)NC(=O)c1cccs1	2	11%
Cc1ccccc1NC(=S)NC1c2ccccc2Oc2ccccc21	-6	-22%
NS(=O)(=O)c1ccc(NC(=O)CN2CCC(Cc3ccccc3)CC2)cc1	1	-4%
Cc1ccc2occ(CC(=O)Nc3ccccc3C(F)(F)F)c2c1	-12	-20%
C=C(C)c1cccc(C(C)(C)NC(=O)Nc2cccc(C)c2C)c1	3	18%
COc1ccc(C(=O)NC(=S)N2CCCCCC2)cc1I	6	37%
O=C(Nc1ccc(OCC(F)(F)C(F)F)cc1)c1ccncc1	0	-2%
COc1ccc(S(=O)(=O)N/N=C/c2c(C)[nH]c3ccccc23)cc1	-4	-4%
O=C(Nc1ccc2oc(-c3ccc(F)cc3Cl)nc2c1)c1ccc2c(c1)OCCO2	-13	-21%
O=C(CCN1CCC(O)(c2ccc(F)cc2)C1)c1ccc2c(c1)OCCO2 (stereo unspecified)	5	1%
CC(=O)c1ccc2c3c(cccc13)C(=O)N(c1ccc(O)cc1C)C2=O	-1	-9%
Cc1nnc(SCc2ccc(Cl)cc2Cl)[nH]c1=O	7	12%
CSc1ccccc1C(=O)NCCSCc1cccc(Cl)c1	-4	-11%
O=C(CC(c1ccccc1)C1CCCCC1=O)c1ccco1 (stereo unspecified)	-4	8%
CC(=O)NC(c1ccccc1)c1nc2ccccc2[nH]1 (stereo unspecified)	2	-5%
Nc1nc2ccccc2n1C(=O)c1c(Cl)cccc1Cl	-5	-6%
O=C(OCc1ccc([N+](=O)[O-])cc1)c1ccc(Br)o1	-4	-13%
CC(NC(=S)N1CCc2ccccc2C1)C12CC3CC(CC(C3)C1)C2 (stereo unspecified)	2	5%
COCCCNC(=S)N1CCN(c2ccccn2)CC1	-5	6%

# Going on with the list:
Structure	motility viability	motility
COc1ccc(OC)c(C2=C[N+](=O)C(C)(C)C(C)(C)N2[O-])c1	-5	9%
COc1ccc([N+](=O)[O-])cc1NC(=O)CN(c1ccc(I)cc1)S(C)(=O)=O	-6	-4%
Nn1c(=O)c2ccccc2n2c(SCC(=O)N(c3ccccc3)c3ccccc3)nnc12	1	18%
O=c1c2cc(Cl)cc(Cl)c2nc(CN2CCOCC2)n1-c1cccc(C(F)(F)F)c1	8	-13%
Cc1cc(NS(=O)(=O)c2ccc(NC(=S)Nc3ccccc3)cc2)nc(C)n1	-5	9%
CCc1c(SCC(=O)O)nc2ccccc2c1C	-3	-2%
Brc1cnc(N2CCOCC2)nc1N1CCCCC1	5	1%
Cc1cc(=O)[nH]c(SCC(=O)Nc2cc(C)on2)n1	2	10%
Cc1cc(C(=O)Nc2ccc(Cl)cc2C(F)(F)F)no1	25	23%
O=C1c2ccccc2C(=O)N1CCc1nn[nH]n1	35	7%
COC(=O)NNC(=O)Nc1ccc(C)c(C)c1	4	22%
Cc1noc(C)c1CSc1nnc2scc(-c3ccc(Cl)cc3)n12	7	9%
CC1C/C(=N/N=C2/NC(=O)CS2)CC(C)(C)C1 (stereo unspecified)	-5	0%
COc1ccc(C(=O)NCC2OCCc3ccccc32)cc1OC (stereo unspecified)	-8	-13%
O=C(CN1CCN(c2ccccn2)CC1)N1N=CCC1c1ccccc1 (stereo unspecified)	28	13%
Cc1nn(-c2nc3ccccc3[nH]2)c(N)c1-c1ccccc1	0	10%
O=C(CN1C(=O)COc2ccccc21)Nc1cccnc1	14	36%
OC(CNCc1ccc(Cl)c(Cl)c1)c1ccccc1 (stereo unspecified)	18	78%
CCOC(=O)c1sc(C)c2c(=O)[nH]c(-c3ccccc3)nc12	-3	-2%
COc1ccc(C(=O)c2ccccc2)c(OCC(=O)NC2CC2)c1	0	7%

# Other entries follow.
Structure	motility viability	motility
Cn1c(Cc2csc(N)n2)nnc1SCC(=O)NC1CCCCC1	-4	2%
C#CCOc1ccc(C(Nc2ccccn2)c2ccc3cccnc3c2O)cc1 (stereo unspecified)	-4	-13%
O=S(=O)(NC12CC3CC(CC(C3)C1)C2)c1ccc(NC(=S)Nc2ccc(F)c(Cl)c2)cc1	7	34%
CC(=O)Oc1ccc2c(=O)c(-c3cc4ccccc4o3)coc2c1	-14	-12%
COC(=O)C1=C(C)OC(=O)C1(NC(=O)c1ccc(Cl)cc1Cl)C(F)(F)F (stereo unspecified)	3	5%
CCOC(=O)Nc1ccc2c(c1)ncn2C1CCCCC1	1	16%
OC(COCC1COc2ccccc2O1)CN1CCc2ccccc2C1 (stereo unspecified)	24	22%
O=C(NNC(=S)NC1CCCCC1)c1ccc(Br)o1	2	20%
Cc1c(Cl)cccc1NC(=S)NCCc1c[nH]c2ccccc12	14	19%
O=C(NCc1ccc(F)cc1)c1ccc2nccnc2c1	2	6%
Cc1ccc(S(=O)(=O)CCSc2cccc(C(=O)O)c2)cc1	-3	-5%
CCSc1nnc(NC(=O)c2ccc(Br)s2)s1	-10	-21%
C=CCOc1ccc(CNCCc2ccc(S(N)(=O)=O)cc2)cc1	29	28%
Cc1ccc(F)c(S(=O)(=O)NCCOc2ccccc2Cc2ccccc2)c1	-7	-13%
Cc1cc(C)cc(NC(=S)NCC(O)c2ccccc2)c1 (stereo unspecified)	3	13%
S=C(NC1CCCC1)N1CCN(Cc2ccc3c(c2)OCO3)CC1	6	12%
O=C(COc1ccc(Cl)cc1Cl)NC(=S)Nc1ccc(C(=O)O)c(Cl)c1	-6	-15%
COc1ccc([N+](=O)[O-])cc1NC(=O)c1cc(-c2ccc(C)s2)nc2ccccc12	0	17%
CC(C)(C)c1ccc(C(=O)Nc2cccc([N+](=O)[O-])c2)cc1	2	15%
COc1ccc(C(=O)NC(=S)Nc2ccc(I)cn2)cc1[N+](=O)[O-]	-3	-1%

# Exported with two lines to a compound: 4 of the compounds above.
# Order of values – motility viability | motility
O=C(NCc1ccc(F)cc1)c1ccc2nccnc2c1
    2 | 6%
Cc1ccc(S(=O)(=O)CCSc2cccc(C(=O)O)c2)cc1
    -3 | -5%
CCSc1nnc(NC(=O)c2ccc(Br)s2)s1
    -10 | -21%
C=CCOc1ccc(CNCCc2ccc(S(N)(=O)=O)cc2)cc1
    29 | 28%

# Random excerpt: 2 records from the list
Structure	motility viability	motility
Cc1cc(C)cc(NC(=S)NCC(O)c2ccccc2)c1 (stereo unspecified)	3	13%
O=C(COc1ccc(Cl)cc1Cl)NC(=S)Nc1ccc(C(=O)O)c(Cl)c1	-6	-15%

# (next part)
Structure	motility viability	motility
O=C(Cc1ccccc1)Oc1cccc2c(OC(=O)Cc3ccccc3)cccc12	7	13%
CC(C)COc1ccc(C(=O)Nc2ccc(SC(F)F)cc2)cc1	-8	-23%
O=C(COc1cccc(C(F)(F)F)c1)NCc1cccnc1	-2	3%
CCOC(=O)N1CCN(C(=S)Nc2cc(Cl)ccc2OC)CC1	6	5%
CCc1nc2ccccc2c(N)c1C (tested in a mixture with another compound)	7	16%
Cc1csc(CCc2nc(C)cs2)n1	-2	-12%
COc1cc(SC)ccc1C(=O)Nc1nc(C)cc(C)n1	-1	9%
O=[N+]([O-])c1ccc(N2CCCCC2)cc1Sc1nnnn1-c1ccccc1	0	4%
COc1ccccc1-c1nc(SCC(=O)Nc2ccccc2[N+](=O)[O-])n[nH]1	3	19%
COC(=O)Cc1ccc(NC(=S)N2CCN(c3ncccn3)CC2)cc1	1	4%
CSc1nsc(SCC(=O)Nc2nnc(C)s2)n1	-3	-7%
COc1cc(/C=C/c2[nH]c(=O)[nH]c(=O)c2[N+](=O)[O-])cc(Cl)c1OCc1ccccc1C#N	-5	-9%
Cc1ccc(N/C(N)=N/c2nc(CSc3ccc(Cl)cc3)cc(=O)[nH]2)c(C)c1	-1	-6%
O=C(NCCc1ccncc1)Nc1cccc2ccccc12	1	6%
CCCCn1c(CCC)nc2c(=O)n(C)c(=O)[nH]c21	36	10%
COc1ccccc1CC(=O)O/N=C(\N)Cc1ccc(Cl)cc1Cl	35	7%
COc1ccc2nc(NC(=O)Cn3cnc4c(=O)n(C)c(=O)n(C)c43)sc2c1	-2	-4%
CCc1ccc(OCC(=O)N2CCN=C2c2ccccc2)cc1	1	-6%
COc1c(F)c(F)c(-c2csc(N)n2)c(F)c1F	-6	-7%
O=S(=O)(NCCCn1ccnc1)c1ccc(I)cc1	0	-6%

# (listing goes on)
Structure	motility viability	motility
Cc1ccc(OC(=O)C23CC4CC(CC(C4)C2)C3)c(C)n1	-12	-24%
C=CCSc1nnc2c(n1)OC(C)=Nc1ccc(Br)cc1-2	2	5%
COc1cc(C(=O)N(Cc2cc3ccccc3[nH]c2=O)CC(C)C)cc(OC)c1OC	-1	-2%
CC(=O)Nc1cc(Br)ccc1O	15	50%
CCOC(=O)CSc1n[nH]c(-c2ccc(Cl)cc2)n1	13	15%
COc1cc(S(=O)(=O)NC(c2ccccc2)c2ccccc2)ccc1Cl	1	7%
N#Cc1ccccc1NC(=O)C(CC(=O)O)NCc1ccccc1 (stereo unspecified)	0	7%
CCOC(=O)c1cnn(Cc2ccc(C)cc2)c1N	1	11%
N#Cc1ccccc1COC(=O)c1cc(-c2ccc(C=O)o2)ccc1Cl	-3	8%
O=C(NC(=O)c1ccccc1)Nc1ccc(SC(F)(F)F)cc1	-1	6%
CC(C)OCCCNC(=O)c1ccncc1	6	-1%
Cc1cc(NCCN2CCOCC2)c2ccc3ccccc3c2n1	8	26%
CC(C)C(=O)Nc1cccc(C(=O)OCc2ccc(Cl)c(Cl)c2)c1	-3	-4%
COc1ccc(F)cc1S(=O)(=O)N1CC(C)CC(C)C1 (stereo unspecified)	6	30%
CC(=O)N1CCN(C(=S)c2ccc(C(C)(C)C)cc2)CC1	-3	1%
O=c1cnnc(SCc2c(F)cccc2Cl)[nH]1	-3	12%
CCC(C)c1ccccc1OCC(=O)Nc1cccc(C(=O)O)c1 (stereo unspecified)	3	-2%
O=c1c2ccccc2cnn1CCCCOc1ccc(Cl)cc1	0	3%
CCOc1ccccc1NC(=S)NNS(=O)(=O)c1c(C)cc(C)cc1C	2	16%
Cc1ccccc1OCC(=O)OCc1cccc([N+](=O)[O-])c1	-3	-5%

# Remaining list, next part
Structure	motility viability	motility
CC1(C)CC(=O)c2c(O)cc(O)cc2O1	15	18%
CCOc1ccc(NCCC(=O)c2ccc3c(c2)OCO3)cc1	-4	0%
Cc1ccc([N+](=O)[O-])cc1NC(=O)CSC1=NCCS1	-6	-6%
Cc1ccccc1OCc1nc2ccccc2n1CC(=O)NNC(=O)COc1ccccc1	-2	-12%
O=C(Nc1cccc(C(F)(F)F)c1)c1cccnc1N1CCCC1	-2	11%
Nc1[nH]c(=S)[nH]c(=O)c1-c1ccccc1	-3	0%
CNS(=O)(=O)c1ccc2c(c1)oc(=O)n2C	3	8%
CC(C)C(=O)Nc1ccc(S(=O)(=O)Nc2nccc(/C=C/c3ccccc3F)n2)cc1	-2	-2%
Cc1ccc(N(C(C)C(=O)Nc2cccnc2)S(C)(=O)=O)cc1C (stereo unspecified)	-11	-16%
CCOC(=O)c1cc(NC(=O)Cn2cc(C=O)c3ccccc32)ccc1Cl	-8	-4%
O=C(Nc1ccon1)C(Sc1ccccc1)c1ccccc1 (stereo unspecified)	6	9%
O=C(Nc1nc2ccccc2s1)C1CC(=O)N(c2ccccc2Cl)C1 (stereo unspecified)	-2	12%
CC(C)(C)c1oc2cc(Br)c(O)cc2c1C(=O)O	5	4%
COc1cc(C=O)ccc1OCc1nnc(-c2ccccc2)o1	-3	-4%
O=C(NCCC1=CCCCC1)C1CCN(C(=O)c2ccc([N+](=O)[O-])cc2)CC1	2	8%
COc1ccccc1N(C(=O)Nc1ccc(Cl)cc1)C(C)C1CC1 (stereo unspecified)	30	17%
CC1CC(C(F)F)n2nc(C(=O)Nc3ccc(Br)cc3F)nc2N1 (stereo unspecified)	2	1%
O=C(Oc1ccccc1[N+](=O)[O-])N(c1ccccc1)c1ccccc1	24	11%
Fc1ccc(CNC(=S)NCc2cccnc2)cc1	-6	5%
CCCCc1ccc(NC(=O)C(=O)NCc2ccccc2C)cc1	1	-6%

# Reprinted from the part before: 4 compounds; new compounds follow.
Structure	motility viability	motility
CC1CC(C(F)F)n2nc(C(=O)Nc3ccc(Br)cc3F)nc2N1 (stereo unspecified)	2	1%
O=C(Oc1ccccc1[N+](=O)[O-])N(c1ccccc1)c1ccccc1	24	11%
Fc1ccc(CNC(=S)NCc2cccnc2)cc1	-6	5%
CCCCc1ccc(NC(=O)C(=O)NCc2ccccc2C)cc1	1	-6%
NC(=O)CCS(=O)(=O)c1ccccc1	5	17%
Cc1nc2ccccc2c(=O)n1NC(=O)c1c(O)c2ccccc2n(C)c1=O	-1	-3%
O=C1C=C2c3ccccc3CC3(CCCC3)N2C1=O	0	2%
O=C(NC(=S)NCc1cccnc1)c1cccs1	-5	0%
O=C1CC(N2CCN(c3nc4ccccc4s3)CC2)C(=O)N1Cc1cccs1 (stereo unspecified)	0	12%
CCOc1ccc(-c2nc3ccc(C)cc3[nH]2)cc1	-1	4%
O=C(O)c1cccnc1SC/C=C/c1ccccc1	25	16%
CC(=O)Nc1ccc([N+](=O)[O-])c(C)c1C	0	3%
O=C(C(F)F)N(Cc1ccccc1)Cc1ccccc1	-17	-31%
O=C(OCc1ccccc1Cl)c1cccs1	1	-2%
CSc1nc2cc(F)c(F)cc2n1C	25	13%
O=S(=O)(c1ccc(Cl)c(C(F)(F)F)c1)N1CCN(c2ccccc2F)CC1	-2	-1%
Fc1ccccc1Cn1cc(C(=S)N2CCCC2)c2ccccc21	-8	-14%
O=C(CC1COc2ccccc2O1)NC1CCCCC1 (stereo unspecified)	4	-1%

# Some of the compounds tested; rates above refer to the full screens.
